# SARS PLP yeast – blocks SARS-CoV papain-like protease in a yeast assay; S. cerevisiae expressing SARS-CoV PLpro, growth rescue; control for the full effect not named in the record; Potency, µM (titrated, usually from 32.9 µM), without a hit: top-dose activity, positive = growth rescue; hit rate 0.19% among 330,000; AID 485353; note: 0% is about no effect; nearly all actives have a fitted effect of over 55% in size; growth read by luminescence after 48 h
# RE007 growth inh – less growth of the S. pombe RE007 Vpr strain; S. pombe RE007 Vpr strain, BacTiter-Glo ATP luminescence, 24 h; control for the full effect not named in the record; Potency, µM (top dose mostly 92.2 µM), for inactives: top-dose activity change, negative = less growth; AID 651644; hit rate 0.21% among 360,000; active = well fitted falling curve with a large enough effect; inconclusive = small, poorly fitted or top-dose-only effect; inactive = no such curve, though single readings can be large or run the other way;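 note: % is set by controls: 0 for no effect and ±100 for the full control effect; nearly all actives have a fitted effect of over 50% in size; the assay follows cell death caused by Vpr and the record does not say whether a fall means rescue or toxicity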
#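 Fission yeast RE007 carrying one integrated HIV-1 vpr copy, seeded at OD 0.01 in PMG+AL medium with 23 nL pinned compound. Grown 24 h at 30 degrees; viability read by BacTiter-Glo luminescence after 5 min.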
# NS1 function inh – blocks influenza NS1 protein function; hit rate 0.4% among 270,000; Potency, µM (doses to about 46.1 µM), for the others: top-dose activity, positive = more growth; S. cerevisiae slowed by influenza A NS1, growth recovery by OD600; note: actives are rising curves; nearly all actives have a fitted effect of over 50% in size
#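 Read-out: OD600 growth recovery of NS1-expressing budding yeast. Cells grown overnight at 30C in -URA glucose medium, washed, resuspended and diluted 1:100 in 2% galactose assay medium, pH 6.0. Same strain lacking NS1 served as positive control.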
# 2A StopGo – FMDV 2A StopGo reporter, luciferase signal; hit rate 1.2% among 410,000; Potency, µM (series often up to 57.9 µM), without a hit: at the top dose signal change, negative = less light; AID 1159524; human cells with a luciferase reporter of 2A StopGo recoding; control for the full effect not named in the record; active = well fitted falling curve with a large enough effect; inconclusive = small, poorly fitted or top-dose-only effect; inactive = no such curve, though single readings can be large or run the other way; tested in HEK293T cells; note: % is set by controls: 0 for no effect and ±100 for the full control effect; nearly all actives have a fitted effect of over 45% in size; luciferase light after 4 h
# Cruzain inh Det – inhibitors of Trypanosoma cruzi cruzain with detergent. purified cruzain, Z-FR-AMC fluorescence, 0.01% Triton. Potency, µM, inactives show max response, negative = inhibition, actives largely listed as inhibitors. hit rate 0.43% among 200,000. AID 1478; active = well fitted curve in the direction sought with a large enough effect; inconclusive = small, poorly fitted or top-dose-only effect, or another doubt; inactive = no such curve, though single readings can be large; an effect the other way counts as inactive or inconclusive;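 note: plate controls were neutral wells for no effect and buffer without enzyme for full effect; nearly all actives have a fitted effect of over 40% in size; top concentration of the series not given in the record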
# Target sequence (P25779 123-467 limits assumed): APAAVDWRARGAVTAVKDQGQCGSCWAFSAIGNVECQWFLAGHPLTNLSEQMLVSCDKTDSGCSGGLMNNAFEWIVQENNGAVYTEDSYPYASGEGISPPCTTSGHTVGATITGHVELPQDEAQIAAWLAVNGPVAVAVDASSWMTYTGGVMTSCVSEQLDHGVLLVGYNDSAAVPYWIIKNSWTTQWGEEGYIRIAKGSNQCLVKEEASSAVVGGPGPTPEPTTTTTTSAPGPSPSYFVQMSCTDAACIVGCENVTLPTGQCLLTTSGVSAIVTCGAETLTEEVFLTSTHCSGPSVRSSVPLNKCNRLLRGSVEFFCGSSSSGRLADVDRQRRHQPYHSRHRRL
#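 Enzyme 1.5 nM, Z-FR-AMC 2 uM, NaOAc 100 mM pH 5.5, DTT 5 mM, Triton X-100 0.01%; 15 min RT compound preincubation; kinetic ex360/em450, 60 s delta.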
# Cruzain inh noDet – cruzain (T. cruzi) inhibition without detergent; P25779; purified cruzain, Z-FR-AMC fluorescence, no detergent; Potency, µM, for the others: max response, negative = inhibition, most hits filed as inhibitors; hit rate 2.3% among 200,000; AID 1476; active = well fitted curve in the direction sought with a large enough effect; inconclusive = small, poorly fitted or top-dose-only effect, or another doubt; inactive = no such curve, though single readings can be large; an effect the other way counts as inactive or inconclusive;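 note: plate controls were enzyme without inhibitor for no effect and buffer without enzyme for full effect; nearly all actives have a fitted effect of over 40% in size; top concentration of the series not given in the record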
#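 Purified cruzain at 1.5 nM, pre-incubated 15 min with compound at room temperature in 100 mM sodium acetate pH 5.5, 5 mM DTT, 0.00005% Triton X-100. Reaction started with 2 uM Z-FR-AMC; AMC fluorescence increase over 60 s gives rate.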
# Lassa entry inh – inhibitors of Lassa virus binding or cell entry; Potency, µM (doses to about 37.9 µM), for inactives: at the top dose activity change, negative = inhibition, usual class: inhibitors; AID 540256; hit rate 1.2% among 300,000; Lassa virus pseudotype entry inhibition, cell reporter; control for the full effect not named in the record; active means well fitted inhibition curve with a large enough effect; inconclusive means small, poorly fitted or top-dose-only effect, or effect the other way; inactive means flat fitted curve, though single readings scatter; tested in HEK293 cells; note: % is set by controls: 0 for no effect and ±100 for the full control effect; nearly all actives have a fitted effect of over 50% in size; luciferase read-out
# Marburg entry inh – inhibitors of Marburg virus binding or cell entry; Marburg virus pseudotyped entry inhibition, cell reporter; control for the full effect not named in the record; about a third of the inactives were read at about 46 µM; Potency, µM (series often up to 37.8 µM), inactives show top-dose activity change, negative = inhibition, actives largely listed as inhibitors; hit rate 1.8% among 300,000; AID 540276; active = well fitted inhibition curve with a large enough effect; inconclusive = small, poorly fitted or top-dose-only effect, or effect the other way; inactive = flat fitted curve, though single readings scatter; tested in HEK293 cells; about a fifth of its hits are not listed in these tables; note: % is set by controls: 0 for no effect and ±100 for the full control effect; luciferase read-out
# An asterisk follows results filed as active; ? = inconclusive; / = not tested or not shown; & = joins results of further samples; [ ] = another dose, or the depositor's remark. Unless noted, calls come from the whole dose curve; as a rule, active means well fitted rising curve with a large enough effect; inconclusive means small, poorly fitted or top-dose-only effect; inactive means no such curve, though single readings can be large or run the other way. Potency is the fitted concentration of half-maximal effect. An unsorted share of the library; any-hit rate near 4.7%.
SMILES,SARS PLP yeast,RE007 growth inh,NS1 function inh,2A StopGo,Cruzain inh Det,Cruzain inh noDet,Lassa entry inh,Marburg entry inh
CC1=C(C(=O)OCC2CCCO2)C(c2ccc(Cl)c(Cl)c2)NC(=O)N1 (stereo unspecified),0%,0%,-4%,-23%,/,/,?,?
Cc1ccc(F)cc1CNC(=O)C1CCC(=O)N(CCCN2CCCC2=O)C1 (stereo unspecified),-5%,6%,2%,78%[activator],/,/,14%,?
O=S(=O)(c1ccc(-c2nc3ccccc3s2)cc1)N1CCCC1,-5%,-11%,3%,43%[activator],3.1%,25µM*,7%,18%
Cc1ccc(C(=O)NCCNc2ncc(C(F)(F)F)cc2Cl)cc1[N+](=O)[O-],2%,9%,3%,-6%,/,/,?,?
CC(=O)c1ccc(NC(=O)/C(Cl)=C/c2ccccc2)cc1,-1%,-7%,-3%,-43%,/,/,?,?
Cc1ccc(-n2nc(C)c3c(C)cc(=O)n(CC(=O)N4CCCc5ccccc54)c32)cc1,/,/,/,-4%,-0.4%,3%,-1%[46.1 µM],/
CCOc1ccc(C(=O)Nc2nnc(S(=O)(=O)Nc3ccccc3)s2)cc1,/,/,/,47%[activator],-0.9%,0%,2%[46.1 µM],/
COc1ccccc1-c1noc(-c2ccccc2C(=O)NCc2ccco2)n1,1%,-10%,2%,0%,/,/,-12%[46.1 µM],?
CCOc1ccc(S(=O)(=O)NCCC(=O)OCC(=O)NC(=O)c2cccn2C)cc1,-3%,-2%,/,2%,/,/,-6%,-9%
COc1cccc(C(C(=O)NC2CCCCC2)N(C(=O)c2ccccn2)c2cccnc2)c1 (stereo unspecified),0%,-5%,-3%,13%,/,/,-9%,13%[46.1 µM]
CCOc1ccc2c(c1)c1nnc(SCC(=O)N3CCCCC3C)nc1n2C (stereo unspecified),-1%,24%,4%,?,-0.2%,?,-12%,-5%
Cn1nnnc1SCCNCc1cc(Cl)ccc1OCc1ccccc1,-22%,1%,2%,-29%,-0.6%,2%,?,?
COc1ccccc1C(=O)N1CCC(C(=O)c2ccc(F)cc2)CC1,-9%,5%,-10%,?,4.3%,-9%,-24%,-2%
O=C(Nc1ccc(Cl)cc1)C1CCCC1,-2%,-6%,-3%,9%,/,/,/,/
CN(C)C(/C=C/Nc1cccc([N+](=O)[O-])c1)=C(C#N)C#N,4%,-6%,/,0%,/,/,10%,24%[46.1 µM]
O=C(NCCC1=CCCCC1)C1CCN(C(=O)c2ccc(Br)cc2)CC1,-1%,-5%,3%,-24%,-0.9%,8%,-2%,7%
Cc1cccc(C(=O)NCC(=O)N2CCN(S(=O)(=O)c3cc(C)ccc3C)CC2)c1,0%,0%,/,-9%,/,/,7%,?
O=c1cnn(-c2ccccc2)c(-c2ccccc2)c1,-3%,13%,-11%,38%[activator],-6.4%,-11%,-4%,?
CN(C)C(C(=O)NC1CCCCC1)c1ccc(Cl)cc1 (stereo unspecified),5%,3%,0%,-13%,4.6%,-4%,13%,-27%[46.1 µM]
COc1cccc(CCc2nnc(CCC(=O)NCCc3cccc(C)n3)o2)c1,0%,-4%,5%,23%,/,/,3%,?

# Next part, overlapping the part above by 5 compounds.
SMILES,SARS PLP yeast,RE007 growth inh,NS1 function inh,2A StopGo,Cruzain inh Det,Cruzain inh noDet,Lassa entry inh,Marburg entry inh
O=C(NCCC1=CCCCC1)C1CCN(C(=O)c2ccc(Br)cc2)CC1,-1%,-5%,3%,-24%,-0.9%,8%,-2%,7%
Cc1cccc(C(=O)NCC(=O)N2CCN(S(=O)(=O)c3cc(C)ccc3C)CC2)c1,0%,0%,/,-9%,/,/,7%,?
O=c1cnn(-c2ccccc2)c(-c2ccccc2)c1,-3%,13%,-11%,38%[activator],-6.4%,-11%,-4%,?
CN(C)C(C(=O)NC1CCCCC1)c1ccc(Cl)cc1 (stereo unspecified),5%,3%,0%,-13%,4.6%,-4%,13%,-27%[46.1 µM]
COc1cccc(CCc2nnc(CCC(=O)NCCc3cccc(C)n3)o2)c1,0%,-4%,5%,23%,/,/,3%,?
N#Cc1c(-c2ccccc2Cl)cc(-c2ccccc2)nc1Br,-15%,-10%,-30%,?,0.5%,?,6%,?
O=C(NCC1CCCN1S(=O)(=O)c1cccs1)C(=O)Nc1ccc(F)cc1 (stereo unspecified),-2%,1%,/,31%[activator],/,/,5%,?
C[C@@H](C(=O)Nc1ccc2ccccc2c1)[C@@H]1C[C@@]1(C)[C@@H](NC(=O)c1cnccn1)c1ccccc1,-10%,1%,?,-15%,-1.9%&-1.3%,-7%&12%,0%,-28%
CC(/C=N/Nc1nc(C)cc(C)n1)=C\c1ccc(C(C)C)cc1,11µM*,-22%,8%,?,-7.2%,0%,-5%,?
CCCn1c(=O)c2sccc2n2c(CCCC(=O)NCc3ccccc3)nnc12,/,/,/,4%,-0.4%,9%,28%[46.1 µM],/
O=C(Nc1cc(S(=O)(=O)N2CCOCC2)ccc1OCC(F)(F)F)c1ccc(N2CCCC2=O)cc1,-4%,-14%,/,4%,/,/,-14%,-12%
Cn1c(C(=O)O)c(CC(=O)NCc2cccnc2)c2ccccc21,6%,14%,-22%,-8%,7.2%,-3%,-8%,22%
CCOc1ccc(S(=O)(=O)NC2CC2)cc1,19%,18%,5%,10%,/,/,5%,?
O=C(CN1C(=O)CSc2ccc(S(=O)(=O)N3CCOCC3)cc21)NCCCN1CCCCC1,-2%,-6%,-12%,-13%&-9%,0.7%,-5%,-1%[46.1 µM],/
O=C(COC(=O)c1cc(Cl)ccc1[N+](=O)[O-])NCc1ccc(Cl)cc1Cl,-9%,-6%,1%,-11%,-7.7%,-2%,7%,?
Fc1ccc(Nc2nc(-c3ccc(F)cc3)c3c(n2)-c2ccccc2OC3)cc1,/,/,/,-6%,-8.5%,?,2%[46.1 µM],-30%[46.1 µM]
CCOC(=O)N1CCN(C(=S)NC(=O)/C=C/c2ccc(C)cc2)CC1,/,-8%,0%,-16%,/,/,-12%[46.1 µM],?
CCc1nnc(NS(=O)(=O)c2ccc(N=Cc3c(C)[nH]n(-c4ccc(Cl)cc4)c3=O)cc2)s1,-24%,?,17%,-13%,-19%,?,3%,1%
O=S(=O)(NCC1CCCO1)c1ccc(S(=O)(=O)N(Cc2ccccn2)C2CC2)cc1 (stereo unspecified),-10%,14%,-2%,43%[activator],-1.8%,8%,-4%,6%
Cc1cc(N/N=C/c2ccccc2O)c2ccccc2n1,4%,18%,-7%,8%,/,/,/,/
O=C(Cc1ccccc1)Nc1c[nH]c(=O)[nH]c1=O,21%,-13%,13%,-4%,6.5%,17%,?,?
COc1ccc2nc3ccccc3[n+]([O-])c2c1,/,-21%,/,72%[activator],/,/,18%,?
O=C(CN1CCCCC1)N/N=C/c1cccc(Cl)c1,5%,-15%,30%,0%,/,/,-3%[46.1 µM],4%[46.1 µM]
COc1cc2c(cc1OC)C(C)N(CCc1ccc(Cl)cc1)CC2 (stereo unspecified),/,0%,/,?,/,/,?,?
Cc1ccccc1NC(=O)c1c([N+](=O)[O-])cnn1C,0%,-2%,-6%,-13%,/,/,/,/

# Complete entries, looked up by structure. Order of values: SARS PLP yeast	RE007 growth inh	NS1 function inh	2A StopGo	Cruzain inh Det	Cruzain inh noDet	Lassa entry inh	Marburg entry inh
# `Cc1cc(N/N=C/c2ccccc2O)c2ccccc2n1` in the list: 4%	18%	-7%	8%	/	/	/	/
# `CCOC(=O)N1CCN(C(=S)NC(=O)/C=C/c2ccc(C)cc2)CC1` in the list: /	-8%	0%	-16%	/	/	-12%[46.1 µM]	?

# More results follow:
SMILES,SARS PLP yeast,RE007 growth inh,NS1 function inh,2A StopGo,Cruzain inh Det,Cruzain inh noDet,Lassa entry inh,Marburg entry inh
COc1ccc(C(=O)NCc2nnc(SCC(=O)Nc3ccccc3)n2-c2ccc(F)cc2)cc1,/,/,/,8%,1.5%,10%,?,0%[46.1 µM]
COc1ccc(N2CCN(C(=O)C3CC(=O)N(c4ccc(C)cc4)C3)CC2)cc1 (stereo unspecified),-7%,-2%,/,2%,/,/,-12%[46.1 µM],-22%[46.1 µM]
CN(C)c1ccc(/C=C2\N=C(c3ccc(Cl)c([N+](=O)[O-])c3)NC2=O)cc1,1%,1%,8%,-7%,/,/,?,-31%[46.1 µM]
CS(=O)c1ccccc1-c1nc(-c2cc(C(F)(F)F)cc(C(F)(F)F)c2)no1 (stereo unspecified),1%,-23%,13%,?,-11%,?,2%,0%
CS(=O)(=O)N1CCN(C(=O)c2ccc(Br)s2)CC1,2%,8%,4%,-12%,1.7%,0%,4%,3%
O=C(NCc1ccc2c(c1)OCO2)c1ccc2c(c1)N(Cc1c(F)cccc1Cl)C(=O)c1ccccc1S2,/,/,/,-3%,-1.9%,10µM*,-4%[46.1 µM],?
Cc1ccccc1CC1(CO)CCCN(C(=O)c2ccccc2N(C)C)C1 (stereo unspecified),-1%,-2%,-7%,3%,/,/,-23%,-11%[46.1 µM]
COc1ccc2oc(C(=O)Nc3nnc(C)s3)c(C)c2c1,-2%,-30%,/,?,/,/,7.1µM*,?
COc1cccc(CNC(=O)C(CC(C)C)NS(=O)(=O)c2ccc3c(c2)oc(=O)n3C)c1 (stereo unspecified),/,/,/,-8%,-2.6%,1%,17%[46.1 µM],-14%[46.1 µM]
O=C1Nc2ccccc2C1Cc1ccc(OC(F)(F)F)cc1 (stereo unspecified),-1%,2%,13%,-18%,/,/,/,/
CN(C)c1ccc(C(=O)OCC(=O)NCCCc2ccccc2)cc1,1%,-3%,-11%,-30%,/,/,/,/
Cc1cccc(CSc2nnc([C@@H]3CCCN3)o2)c1,-1%,-8%,4%,11%,/,/,-7%,4%[46.1 µM]

# Bioassay records from PubChem.
